Screening results: PubChem BioAssay, several laboratories
S1P2 antag – antagonists of human S1P2 receptor; cell-based S1P2 antagonist assay, inhibition at 5 uM; 97,000 compounds, 0.21% hits; inhibition, % at 5 µM; in the data active = inhibition above about 45%;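 also: CRE beta-lactamase reporter cells expressing human S1P2 stimulated with S1P; 0% = agonist at EC80 alone and 100% = agonist plus reference antagonist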
Target sequence (O95136 whole entry, looked up): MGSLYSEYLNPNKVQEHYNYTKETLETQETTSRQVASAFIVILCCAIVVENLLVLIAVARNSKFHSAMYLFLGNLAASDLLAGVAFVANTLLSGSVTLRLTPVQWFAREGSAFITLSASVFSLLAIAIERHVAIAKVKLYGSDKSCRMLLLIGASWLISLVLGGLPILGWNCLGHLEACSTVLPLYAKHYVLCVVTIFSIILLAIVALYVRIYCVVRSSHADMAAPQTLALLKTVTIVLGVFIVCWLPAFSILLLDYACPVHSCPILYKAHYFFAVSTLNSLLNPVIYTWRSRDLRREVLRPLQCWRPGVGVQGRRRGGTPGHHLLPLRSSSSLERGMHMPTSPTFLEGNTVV
CYP2C19 inh – human CYP2C19 inhibition; inhibition, % at 5 µM; P33261; 96,000 compounds, 21% hits; AID 778; CYP2C19 Supersomes, luciferin-H EGE luminescence, 30 min;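 active = CYP2C19 inhibition above a set limit at 5 µM in the primary screen, cut at about 50% in these data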;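 also: plate controls were negative control wells for no effect and 2.5 mM tranylcypromine positive control for full effect; values of inactives mirror those of a sister screen read the other way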
Target sequence (P33261 whole entry, looked up): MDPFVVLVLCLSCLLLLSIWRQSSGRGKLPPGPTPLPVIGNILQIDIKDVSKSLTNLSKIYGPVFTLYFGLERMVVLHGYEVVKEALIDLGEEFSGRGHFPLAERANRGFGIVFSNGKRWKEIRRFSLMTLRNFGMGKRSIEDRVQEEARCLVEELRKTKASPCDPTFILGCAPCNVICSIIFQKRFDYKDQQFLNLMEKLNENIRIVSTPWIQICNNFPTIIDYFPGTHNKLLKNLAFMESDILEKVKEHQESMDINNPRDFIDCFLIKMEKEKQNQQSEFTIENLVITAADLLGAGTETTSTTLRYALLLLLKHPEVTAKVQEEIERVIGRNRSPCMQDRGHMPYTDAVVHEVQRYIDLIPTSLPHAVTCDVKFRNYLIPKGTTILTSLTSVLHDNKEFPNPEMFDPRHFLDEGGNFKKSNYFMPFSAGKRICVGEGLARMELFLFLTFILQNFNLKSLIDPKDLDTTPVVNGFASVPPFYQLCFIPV
PostGolgi yeast – growth inhibition of a yeast mutant, post-Golgi transport screen; post-Golgi transport phenotypic cell assay; inhibition, % at 10 µM; 98,000 compounds, 0.9% hits; AID 739;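 also: yeast cells grown in 1536-well plates; yeast grown about 18 h at 30C before absorbance read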
S1P2 agonist – activates the human S1P2 receptor. S1P2-expressing cell line, agonist reporter read-out. activation, % at 4.5 µM. 97,000 compounds, 0.46% hits. AID 729; in the data active = activation above about 16%;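 also: 0% = vehicle low control and 100% = maximal reference agonist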
CYP2C19 act – activators of human cytochrome P450 2C19 | P33261 | AID 1025 | activation factor at 5 µM | recombinant CYP2C19, luciferin-H EGE luminescence; hits give high values; 0 = fully inhibited enzyme, 1 = untreated enzyme | 96,000 tested, under 10 active;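 active = activation factor of at least 2 at 5 µM in the primary screen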;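 also: 0 = wells with 2.5 mM tranylcypromine and 1 = vehicle-only wells; values of inactives mirror those of a sister screen read the other way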
DAT uptake mod – human DAT dopamine uptake with cocaine, either direction. LLC-PK1 hDAT cells, [14C]-dopamine uptake with cocaine IC80; actives deviate in either direction. AID 449768. 110,000 compounds, 1.3% hits. B-score at 10 µM;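 active = Z score or B-score, a plate-position-corrected score, falls beyond the plate's 99.7% confidence bounds, in either direction; inactive = both scores lie inside the 99.7% bounds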;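 also: scored against the spread of the other compound wells on the same plate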
PostGolgi ctrl – growth of the yeast control strain, post-Golgi counter-screen; efflux-deficient yeast background strain, growth absorbance A615, 16 h; inhibition, % at 10 µM; 98,000 compounds, 5% hits; AID 738
An asterisk follows results filed as active; nt = no result given. Rule as the data show it, unless noted: active = inhibition above about 30%; inactive = the rest. Not all compounds are listed; count on the stated rates, not on these rows.

SMILES	S1P2 antag	CYP2C19 inh	PostGolgi yeast	S1P2 agonist	CYP2C19 act	DAT uptake mod	PostGolgi ctrl
Cc1ccc(CNC(=O)C(=O)NCCCn2ccnc2)cc1	4	nt	nt	-7	nt	-0.48	nt
COc1ccccc1C1/C(=C(/O)c2ccccc2)C(=O)C(=O)N1CC(C)O (centres undefined)	8	-4	2	-3	1	-0.42	0
COc1ccc(Br)cc1/C=N/n1c(C)nnc1C	-12	nt	nt	0	nt	0.78	nt
CCOC(=O)c1ccc(NC(=O)Nc2ccc3c(c2)OCCO3)cc1	-9	nt	-5	-3	nt	1.4	7
COC(=O)c1c(NC(=O)Cc2cccs2)sc2c1CCC(C)C2 (centres undefined)	2	-3	-7	-4	1	-1	0
COC(=O)c1nnn(CC(=O)Nc2cccc(Cl)c2)c1C(=O)OC	-2	79*	3	-4	0.2	1.1	4
COC(=O)c1sc2nc3c(cc2c1N)COC(C)(C)C3	-24	35	15	-3	0.6	-0.16	-2
O=C1C2ON(c3ccccc3)C(c3ccccn3)C2C(=O)N1c1ccc(Br)cc1 (centres undefined)	1	39	-5	-10	0.6	-0.89	6
CC(=O)SC(C[N+](=O)[O-])c1cn(C(C)=O)c2ccccc12 (centres undefined)	29	5	10	-10	1	-0.027	28
COC(=O)c1ccc2c(=O)n(CCCN3CCCC3=O)c(=S)[nH]c2c1	-21	0	-1	1	1	-1.3	-5
COc1ccc(NC(=O)C2(c3ccc(NC(=O)c4ccc(OC(C)=O)cc4)cc3)CCCC2)cc1	-18	3	-3	-2	1	-0.77	3
Cc1ccc(C2CC(=O)NC3=C2C(=O)CCC3)cc1Br (centres undefined)	17	38	-3	-6	0.6	0.72	-1
O=C(Nc1ccc(Br)cc1F)C1CCCN(S(=O)(=O)c2cnc[nH]2)C1 (centres undefined)	9	83*	-4	-1	0.2	-0.8	9
CSc1nnc2c(n1)[nH]c1c(C)cccc12	3	6	-3	-3	0.9	-0.54	3
O=C(NC1CCCCC1)C1CCN(c2cnccn2)CC1	19	-9	12	-8	1.1	-0.52	5
COc1ccc(N(CC(=O)Nc2ccc(S(=O)(=O)N3CCCCC3)cc2)S(C)(=O)=O)cc1OC	13	18	-1	-6	0.8	-0.54	-5
Cn1c(=NC(=O)C2CCN(S(=O)(=O)c3cccs3)CC2)sc2ccccc21	-17	2	7	-1	1	0.26	-4
O=C(NC1CCCCC1)NC1CCN(S(=O)(=O)c2ccc3c(c2)OCCO3)CC1	-2	-7	-26	-6	1.1	1.3	6
Cc1cc(C)n(-c2ccc(C(=O)NC3=NCCS3)cc2)n1	8	nt	-2	-7	nt	0.052	4
N#Cc1c(NC(=O)CSCC(=O)O)sc2c1CCCC2	-3	-4	1	1	1	-0.69	7

Random excerpt: four records from the list.
SMILES	S1P2 antag	CYP2C19 inh	PostGolgi yeast	S1P2 agonist	CYP2C19 act	DAT uptake mod	PostGolgi ctrl
O=C(NC1CCCCC1)NC1CCN(S(=O)(=O)c2ccc3c(c2)OCCO3)CC1	-2	-7	-26	-6	1.1	1.3	6
COc1ccc(N(CC(=O)Nc2ccc(S(=O)(=O)N3CCCCC3)cc2)S(C)(=O)=O)cc1OC	13	18	-1	-6	0.8	-0.54	-5
Cc1ccc(C2CC(=O)NC3=C2C(=O)CCC3)cc1Br (centres undefined)	17	38	-3	-6	0.6	0.72	-1
COC(=O)c1ccc2c(=O)n(CCCN3CCCC3=O)c(=S)[nH]c2c1	-21	0	-1	1	1	-1.3	-5

The list goes on:
SMILES	S1P2 antag	CYP2C19 inh	PostGolgi yeast	S1P2 agonist	CYP2C19 act	DAT uptake mod	PostGolgi ctrl
Nc1nc(N)nc(-c2ccc(Cl)cc2)n1	-7	3	nt	-3	1	-0.21	-2
CCOC(=O)C1=C(CC)Nc2ccccc2N=C1NC(=O)c1cccc(S(=O)(=O)N2CCCC2)c1	-26	54*	4	-1	0.5	0.06	3
CCN(CC)S(=O)(=O)c1ccc(NC(=O)c2ccc(N(C)S(C)(=O)=O)cc2)cc1	-11	nt	nt	-7	nt	-0.074	nt
Cc1ccc(C(=O)COC(=O)CNS(=O)(=O)c2ccccc2)cc1[N+](=O)[O-]	-6	6	20	-5	0.9	-0.078	-6
CC(=O)NC(Cc1ccccc1)C(=O)NC1CCN(C(=O)c2cnccn2)CC1 (centres undefined)	-6	0	-3	0	1	-0.31	-1
COc1ccc(C)cc1NC(=O)c1ccc(S(=O)(=O)N2CCOCC2)cc1	7	5	0	-6	1	0.09	-1
Cc1cccc(NC(=O)CCc2ccc(S(=O)(=O)NC3CCCCC3)cc2)c1	-16	15	4	-5	0.8	0.94	-2
N#Cc1ccc(-c2cccnc2)nc1SCc1ccc(Cl)cc1Cl	-15	18	9	-2	0.8	0.022	17
Cn1c(N)c(C(=O)COC(=O)Cn2cc(C(F)(F)F)ccc2=O)c(=O)n(C)c1=O	9	-2	-5	-1	1	1	16
CN=C1S/C(=C\c2ccc(Sc3ccc(Cl)cc3)o2)C(=O)N1C	-13	7	9	-6	0.9	-0.83	-6
Cc1cccc(Cn2c(NCCO)nc3c2c(=O)n(C)c(=O)n3C)c1	3	33	2	-8	0.7	-0.0069	1
COc1ccc(/C=C/C(=O)c2ccoc2)cc1	-1	35	2	-4	0.7	-0.61	1
O=C(NC1CCCCCCC1)NC1CCCCC1	0	16	-1	-6	0.8	0.22	5
CC(=O)C1=C(C)Nc2ncnn2C1c1cccc(OCc2ccccc2)c1 (centres undefined)	-9	11	0	-1	0.9	-1.1	10
Cn1c(=O)c2c(nc(NCCCO)n2Cc2cccc(Br)c2)n(C)c1=O	6	30	-3	-1	0.7	0.34	5
Cc1c(C=O)c2ccccn2c1C(=O)c1ccccc1	-41	85*	-4	-2	0.1	0.1	3
COc1ccc(NC(=O)C2(c3ccc(NC(=O)c4ccc(OC)c(OC)c4)cc3)CCCC2)cc1	21	6	-9	-6	0.9	-0.081	-2
COc1ccccc1OCC(=O)Nc1ccc(S(=O)(=O)N2CCCCCC2)cc1	11	86*	-12	-6	0.1	0.12	21
COc1ccc2cc(C#N)c(N3CCN(Cc4nnnn4CCC(C)C)CC3)nc2c1	7	59*	-3	-4	0.4	1.1	34*
Cc1cc2ncc(-c3ncc(C(F)(F)F)cc3Cl)cn2n1	12	18	12	-5	0.8	-0.8	8

Profiles from above. Screens in order: S1P2 antag, CYP2C19 inh, PostGolgi yeast, S1P2 agonist, CYP2C19 act, DAT uptake mod, PostGolgi ctrl
COC(=O)c1ccc2c(=O)n(CCCN3CCCC3=O)c(=S)[nH]c2c1 reads -21, 0, -1, 1, 1, -1.3, -5
O=C(NC1CCCCC1)C1CCN(c2cnccn2)CC1 reads 19, -9, 12, -8, 1.1, -0.52, 5

The listing continues.
SMILES	S1P2 antag	CYP2C19 inh	PostGolgi yeast	S1P2 agonist	CYP2C19 act	DAT uptake mod	PostGolgi ctrl
COc1cccc(NC(=O)COc2ncnc3sc(C)c(C)c23)c1	-4	0	-2	-7	1	-0.67	-9
CC(=O)Cc1nsc(NC(=O)c2ccc(-c3cc(C(F)(F)F)ccc3Cl)o2)n1	-18	-11	25	-8	1.1	-0.67	12
N#CC1(c2ccc(NC(=O)c3ccccc3)cc2)CCCC1	4	-12	-2	-3	1.1	-0.56	25
O=C(Nc1cccc(S(=O)(=O)C(F)F)c1)c1ccc(S(=O)(=O)N2CCOCC2)cc1	8	6	0	-2	0.9	-0.0011	-4
Cc1ccc(NC(=O)c2ccc3c(c2)OCCO3)cc1	9	7	-2	-2	0.9	-0.47	2
O=S(=O)(NCC1CCCO1)c1ccc2ccccc2c1 (centres undefined)	-4	92*	0	-4	0.1	-0.58	8
CC(=O)Cc1nsc(NC(=O)c2ccc(Br)o2)n1	7	nt	nt	-10	nt	-0.079	nt
CCN(CCNC(=O)C1CCN(S(=O)(=O)CC)CC1)c1ccccc1	5	8	-3	-1	0.9	-0.012	15
CCOc1cc(S(=O)(=O)N2CCCC2)ccc1Cl	-37	51*	0	0	0.5	-0.036	17
O=C(NC1CCCc2ccccc21)c1ccc(=O)[nH]c1 (centres undefined)	2	-3	2	-5	1	-1.7	9
CN(C)S(=O)(=O)NCc1ccc2c(c1)OCO2	-1	69*	1	-6	0.3	-0.0034	23
COc1ccc(C(=O)NCCCn2ccnc2)cc1	22	89*	-6	-3	0.1	-1.6	10
COC(=O)COc1cccc(NC(=O)COc2ccccc2)c1	-8	3	-2	2	1	-0.31	5
CCSc1nnc(NC(=O)C2CCCN(S(=O)(=O)c3cnc[nH]3)C2)s1 (centres undefined)	9	25	-2	-2	0.8	0.23	16
COc1cc(CC(=O)O)c(C(C)=O)cc1OC	2	-9	-4	-5	1.1	-0.94	6
COc1ccc(CCNC(=O)NC23CC4CC(CC(C4)C2)C3)cc1OC	8	37	-2	-6	0.6	0.62	7
O=C(Cc1cccs1)N1CCCC(c2nc(-c3ccc(S(=O)(=O)N4CCCC4)cc3)no2)C1 (centres undefined)	-8	7	5	-2	0.9	1.5	3
O=C(NC1CCCCCC1)C1CCN(S(=O)(=O)c2ccc(F)cc2)CC1	8	4	-2	-1	1	0.4	11
O=C(c1cccc(S(=O)(=O)N2CCOCC2)c1)N1CCOCC1	7	-6	27	-6	1.1	-0.14	3
CCC(C)NS(=O)(=O)c1ccc(NC(=O)CCC2CCCCC2)cc1 (centres undefined)	10	4	-7	-11	1	0.082	2
COc1ccc(C(=O)NCCc2c[nH]c3ccccc23)cc1S(=O)(=O)N1CCOCC1	16	19	4	-8	0.8	0.37	9
COC(=O)c1nnn(CC(=O)Nc2cccc(OC)c2)c1C(=O)OC	-12	37	2	-1	0.6	0.32	-4
COc1cc(C(=O)OC2CCCCC2=O)cc(OC)c1C (centres undefined)	-28	34	-1	-5	0.7	-0.95	6
CSc1cc(C)n(-c2ccc(Cl)cc2)c(=S)c1C(C)=O	1	30	-3	-4	0.7	0.0074	6
CC(C)Oc1cccc(C(=O)NC(=S)Nc2ccc3c4c(cccc24)CC3)c1	8	-16	-4	-5	1.2	0.5	0
CSc1cc(C)n(-c2ccccc2C)c(=S)c1C(C)=O	-5	-15	-8	-1	1.1	1.6	4
Cc1ccc(C(=O)NC2CCCCCC2)cc1N1CCCC1=O	5	-16	-2	-4	1.2	0.66	16
